Ecoli rRNA inh = inhibits bacterial ribosomal RNA function over humanized ribosomes; GFP signal change (wild-type ribosome), % (no concentration beside the values); 350,000 tested, 1.6% active; E. coli WT GFP vs humanized-ribosome RFP mutants, fluorescence, 24 h; active compounds read low; DMSO median 0, no signal -100; AID 720706;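 active = significant combined selectivity score with lowered wild-type GFP, culture density cut under 30%, mutant RFP and density less affected; inactive = any of these conditions unmet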; also: one replicate is shown; some compounds called inactive have numbers as strong as hits
AF4-AF9 inh = inhibitors of human MLL-AF4/AF9 interaction; AlphaScreen, biotin-AF4 peptide binding to FLAG-AF9; inhibition, % at 10 µM; 350,000 tested, 0.47% active;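 active = every replicate reaching a set inhibition limit, whatever the replicate mean, cut at about 25% in these data; inconclusive = mean inhibition reaches that limit but some replicates miss it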;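 also: 0% = plate neutral control median and 100% = total signal loss; the record names both 10 and 1 µM as test concentration; the first replicate is given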
Target sequence (P42568 whole entry, looked up): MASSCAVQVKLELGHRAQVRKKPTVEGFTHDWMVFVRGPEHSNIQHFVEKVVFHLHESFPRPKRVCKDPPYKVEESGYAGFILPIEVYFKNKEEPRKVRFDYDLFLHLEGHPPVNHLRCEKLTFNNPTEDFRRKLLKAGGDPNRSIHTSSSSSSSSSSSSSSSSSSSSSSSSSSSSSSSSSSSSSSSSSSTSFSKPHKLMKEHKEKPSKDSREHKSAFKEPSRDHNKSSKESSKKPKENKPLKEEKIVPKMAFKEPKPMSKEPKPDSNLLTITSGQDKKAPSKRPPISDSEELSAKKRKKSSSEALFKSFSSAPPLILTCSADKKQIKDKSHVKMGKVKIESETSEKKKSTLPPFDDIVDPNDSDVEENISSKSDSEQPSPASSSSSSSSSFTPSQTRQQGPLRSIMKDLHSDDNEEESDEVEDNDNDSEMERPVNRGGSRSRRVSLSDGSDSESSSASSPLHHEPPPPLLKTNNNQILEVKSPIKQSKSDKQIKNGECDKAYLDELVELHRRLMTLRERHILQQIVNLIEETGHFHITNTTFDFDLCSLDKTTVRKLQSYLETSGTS
Vif A3G = HIV-1 Vif–A3G interaction blockers – biochemical, TR-FRET, GST-Vif 1-94, biotin-A3G peptide, dose response retest, primary screen (AID 1117319); 260,000 tested, 0.57% active; inhibition, %; hits with a dose series show IC50 in µM; TR-FRET GST-Vif / biotin-A3G peptide binding; higher % means a stronger effect; test concentration not given here; strong numbers were not always called active;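 active = above the screen mean plus three standard deviations and confirmed in dose response; inconclusive = results disagree or hit not tested in dose response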;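 also: Vif residues 1-94 fused to GST binding biotinylated APOBEC3G peptide 110-148; 0% = full assay without inhibitor and 100% = GST in place of GST-Vif; retest series ran down from 100 µM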
Bfl-1 A1 inh = inhibitors of the anti-apoptotic protein A1, read as caspase activation. MEF A1-2A-BIM cells, Caspase-Glo 3/7 luminescence, 3 h; percent of clofoctol response, vehicle zero. AID 2462. caspase activation, % (no concentration beside the values). 330,000 tested, 0.066% active;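 active = over half of replicate activation scores above 10%, or exactly half above 10 with the replicate mean above 10; inconclusive = replicate mean below 10 yet half the replicates above 10; inactive = over half of replicates below 10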;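 also: wells of about 30 µL received 50 nL stock; many hits fall short of the cut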
Beta cell apopt = beta cell apoptosis inhibition | INS-1E cytokine-induced death, ATP luminescence, 48 h; percent of positive-control rescue, neutral wells zero | protection from apoptosis, % (concentration not given with the values) | 300,000 tested, 0.8% active;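 active = all replicates at 75% or more, or half of them and the mean; inconclusive = half reach 75% but not the mean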;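 also: 0% = cytokine-treated negative control wells and 100% = positive control rescue; higher means more ATP so stronger rescue from cytokine killing; wells of about 40 µL received 100 nL stock; the first replicate is given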
T cruzi inh = blocks replication of Trypanosoma cruzi; T. cruzi beta-gal in NIH3T3, luminescence, 90 h; inhibition, % (test concentration not listed); 300,000 tested, 1.4% active; AID 1885;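 active = mean inhibition across valid replicates above about 55%, limit read from the data; inconclusive = mean below that limit but half or more replicates reach it; inactive = mean below it, under half of replicates reach it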;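 also: signal also drops with host cell toxicity which is not excluded here; 0% = plate median of DMSO wells and 100% = zero luminescence signal; higher percent means less beta-gal luminescence so fewer parasites; stock transfer was 50 nL into about 50 µL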
RanGTP-Imp inh = disruptors of Ran-importin-beta complex formation – biochemical, FRET, CFP-Ran, YFP-importin-beta, homogeneous, primary screen | cell-free CFP-Ran/YFP-importin-beta FRET ratio | inhibition, % (test concentration not listed) | 300,000 tested, 1.1% active;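 active = most replicates above 15%; inconclusive = exactly half above 15%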;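 also: 0% = DMSO wells and 100% = Ran loaded with GDP instead of GTP; wells of about 40 µL received 100 nL stock; the first replicate is given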
Calb FLC = C. albicans growth modulation with fluconazole. AID 1979. 300,000 tested, 0.57% active. growth inhibition, % (concentration not given with the values). C. albicans CaCi-2 (fluconazole-resistant clinical isolate) + fluconazole, Alamar Blue growth, 48 h;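 active = most replicates above 75%; inconclusive = exactly half above 75%; inactive = most below 75%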;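 also: all wells also contain fluconazole at 8 µg/ml as a sub-toxic cotreatment; 0% = median of DMSO wells and 100% = median of geldanamycin control wells; wells of about 8 µL received 7.5 nL stock; the first replicate is given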
Ecoli rRNA inh OD600 = also measured in Ecoli rRNA inh; calls as there; OD600 change, %; measured here: OD600 growth;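 optical density of the mix in the first replicate; 0 = DMSO median and -100 = no signal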
Ecoli rRNA inh RFP = also measured in Ecoli rRNA inh; calls as there; RFP signal change, %; measured here: RFP humanized mutant strains;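 first replicate; 0 = DMSO median and -100 = no signal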
* marks the source's active call; other numbers are inactive results; ? = inconclusive; · = no result given. Some of the compounds tested; count on the stated rates, not on these rows.

The opening three records, ahead of the listing:
SMILES	Ecoli rRNA inh	Ecoli rRNA inh OD600	Ecoli rRNA inh RFP	AF4-AF9 inh	Vif A3G	Bfl-1 A1 inh	Beta cell apopt	T cruzi inh	RanGTP-Imp inh	Calb FLC
CN(C)C(C(=O)Nc1cc(Cl)cc(Cl)c1)c1ccccc1 (stereo unspecified)	-55	-77	-24	-5.0	3%	1.6	-2	13	6.2	4
Cc1cccc(N(CC(=O)NC2CCCCC2)C(=O)CCCC(=O)Nc2ccccn2)c1C	5	-1	-0.4	-1.1	·	0.6	0	5	-2.1	-4
O=S(=O)(NCc1cccnc1)c1ccc2ccccc2c1	0	3	2.0	-0.6	·	-0.7	3	-7	-2.0	17

The list itself, repeating the preview:
SMILES	Ecoli rRNA inh	Ecoli rRNA inh OD600	Ecoli rRNA inh RFP	AF4-AF9 inh	Vif A3G	Bfl-1 A1 inh	Beta cell apopt	T cruzi inh	RanGTP-Imp inh	Calb FLC
CN(C)C(C(=O)Nc1cc(Cl)cc(Cl)c1)c1ccccc1 (stereo unspecified)	-55	-77	-24	-5.0	3%	1.6	-2	13	6.2	4
Cc1cccc(N(CC(=O)NC2CCCCC2)C(=O)CCCC(=O)Nc2ccccn2)c1C	5	-1	-0.4	-1.1	·	0.6	0	5	-2.1	-4
O=S(=O)(NCc1cccnc1)c1ccc2ccccc2c1	0	3	2.0	-0.6	·	-0.7	3	-7	-2.0	17
CCc1cccc(CC)c1NC(=O)COn1nnc2ccc(C(F)(F)F)cc21	·	·	·	·	·	0.1	-5	-6	2.0	3
Cc1nc(N2CCCCC2)c2c(-c3cccs3)csc2n1	-29	-33	0.3	3.8	-6%	1.5	-2	-1	2.2	4
O=C(NCCO)c1ccccc1O	·	·	·	·	21%	-0.2	-6	-6	0.7	2
COc1ccc(OC)c(C(=O)NC(CC(N)=O)c2ccc(NCCN3CCCCC3)c([N+](=O)[O-])c2)c1 (stereo unspecified)	1	12	16	1.8	·	-0.1	-1	-6	-6.6	-2
CCS(=O)(=O)N1Cc2ccccc2CC1C(=O)OCC(=O)N(C(C)C)C(C)C (stereo unspecified)	1	2	-0.8	-3.6	-9%	-0.1	-3	12	·	-8
COc1ccc(-c2nn3c(-c4cccc(C)c4)nnc3s2)cc1OC	·	·	·	·	-17%	-0.4	4	17	1.0	21
CCN1CCN(C(=O)C(N)Cc2ccccc2)CC1 (stereo unspecified)	13	11	3.3	4.0	19%	0.1	-6	-11	3.8	0
CCOC(=O)N1CCN(C(=O)NC2CCCCC2)CC1	·	·	·	·	-3%	0.4	-1	-9	3.3	13
Cc1ccc(-c2csc3nnc(SCC(=O)Nc4cccc(C)n4)n23)cc1	·	·	·	·	19%	0.5	0	-8	-1.0	1

Of the compounds above, these have two or more sulfur atoms:
SMILES	Ecoli rRNA inh	Ecoli rRNA inh OD600	Ecoli rRNA inh RFP	AF4-AF9 inh	Vif A3G	Bfl-1 A1 inh	Beta cell apopt	T cruzi inh	RanGTP-Imp inh	Calb FLC
Cc1nc(N2CCCCC2)c2c(-c3cccs3)csc2n1	-29	-33	0.3	3.8	-6%	1.5	-2	-1	2.2	4
Cc1ccc(-c2csc3nnc(SCC(=O)Nc4cccc(C)n4)n23)cc1	·	·	·	·	19%	0.5	0	-8	-1.0	1

The main list resumes; the two compounds before the break are reprinted first.
SMILES	Ecoli rRNA inh	Ecoli rRNA inh OD600	Ecoli rRNA inh RFP	AF4-AF9 inh	Vif A3G	Bfl-1 A1 inh	Beta cell apopt	T cruzi inh	RanGTP-Imp inh	Calb FLC
CCOC(=O)N1CCN(C(=O)NC2CCCCC2)CC1	·	·	·	·	-3%	0.4	-1	-9	3.3	13
Cc1ccc(-c2csc3nnc(SCC(=O)Nc4cccc(C)n4)n23)cc1	·	·	·	·	19%	0.5	0	-8	-1.0	1
CCn1c(=O)c([N+](=O)[O-])c(N2CCSCC2)c2ccccc21	-34*	-13*	-6.7*	-3.9	?	-0.1	-4	14	-1.4	-3
CCOc1c(N2CCOCC2)c(=O)c1=O	2	4	-6.7	·	1%	0.1	0	-8	0.0	1
COc1ccc(CN(CC(=O)NC2CCCC2)C(=O)c2ccc(-c3ccccc3)[nH]2)cc1	0	-2	0.7	3.5	23%	-0.5	2	32	-3.8	18
O=C(Cn1cnc2c(cnn2-c2ccc(F)cc2)c1=O)N1CCCc2ccccc21	·	·	·	·	18%	-0.7	2	0	-0.7	7
CN(C)C(=O)c1c([N+](=O)[O-])ncn1C	·	·	·	·	·	-1.3	·	-18	-1.4	19
CCCCC(=O)Nc1ccc2c(c1)nc1n2CCSC1	·	·	·	·	4%	-1.2	1	-11	0.8	-8
Cc1cccc(-n2nc3c([n+]2[O-])CCc2nonc2-3)c1C	·	·	·	·	-4%	0.9	-5	-21	-1.8	-3
Cc1ccc(CNc2nc(Cl)c(C#N)s2)cc1	-5	-2	3.9	-7.1	-11%	-1.0	0	14	-1.8	-1
O=C(COC(=O)c1ccc([N+](=O)[O-])o1)NC1CCCc2ccccc21 (stereo unspecified)	-4	3	-4.1	2.6	·	-0.5	1	·	·	·
CCOC(=O)N1CCN(C(=O)CCn2c(=S)[nH]c3ccccc3c2=O)CC1	-6	-4	-6.1	-0.2	·	1.6	1	-12	0.5	22
CC(/C=N\N1CCN(c2ccc(Cl)cc2)CC1)=C\c1ccccc1	·	·	·	·	1%	1.9	-3	2	2.6	-9
COc1ccc(CN2C3CCCC2CC(NC(=O)Nc2cccc(C)c2)C3)cc1 (stereo unspecified)	·	·	·	·	4%	0.5	5	24	?	7
CCOc1ccc(CC(=O)NNC(=S)Nc2ccccc2)cc1Br	·	·	·	·	?	1.0	·	-8	1.1	-4
Cc1ccc(S(=O)(=O)c2c(CO)c(-c3ccccc3)nn2C)cc1	-11	-15	-4.2	-0.4	-4%	0.0	-1	-11	?	-5
O=C(c1ccc(S(=O)(=O)c2ccc(Cl)cc2)cc1)N1CCOCC1	8	3	1.4	3.8	-2%	1.5	-11	-3	-6.8	13
CC(=O)c1c(C)n(CCc2ccc(Cl)cc2)c2ccc(O)cc12	6	5	-3.2	-3.0	-9%	0.8	-5	6	-0.7	14
C/C(Cn1nnc([N+](=O)[O-])n1)=N\NC(=O)c1ccccc1	-7	16	1.7	-0.7	-4%	0.1	17	50	-3.4	33
CN(CCNC(=O)C1CCCN(c2ncnc3c2nc2n3CCCCC2)C1)Cc1ccccc1 (stereo unspecified)	11	2	2.2	2.3	·	0.5	-7	46	0.3	-14
FC(F)(F)c1nc(SCc2ccccc2)n[nH]1	6	13	4.0	-1.7	·	0.4	·	6	2.0	-2
O=C(COC(=O)/C=C/c1ccccc1)Nc1nnc(-c2ccccc2)o1	-2	-2	-1.6	-8.8	-5%	0.9	-5	-22	6.4	36
CN(Cc1ccccc1)C(=O)CN(Cc1ccccc1)S(C)(=O)=O	·	·	·	·	3%	0.1	-3	-14	0.3	10
O=C(O)c1c2c(nc3ccccc13)/C(=C/c1ccc(OC(F)F)cc1)CCC2	-47	-62	-14	1.5	·	0.7	-5	-13	31*	9
CCC1SC(C)C/C(=N/NC(N)=O)C1C (stereo unspecified)	3	8	-1.9	-14	-1%	0.6	-4	12	-3.8	-2
Cc1nnc(SCC(=O)NC(C)(C)C)n1NCc1ccc(N(C)C)cc1	22	2	7.2	-1.6	0%	-1.0	-12	-8	-1.6	0
N#C/C(=C/c1ccc(F)cc1)S(=O)(=O)c1ccccc1	12	0	6.2	-1.5	18%	0.1	6	-18	3.8	-1
Cc1ccc(-c2c3c(=O)n(C)c(=O)n(C)c3cn2CCCN2CCOCC2)cc1	·	·	·	·	1%	0.8	-2	6	1.3	-12
Cc1cc(C(=O)CSc2nncs2)c(C)n1-c1ccc2c(c1)OCO2	·	·	·	·	6%	-0.6	15	14	1.4	-18
O=C(CN(Cc1ccc(Cl)cc1)C(=O)c1csnn1)NCc1ccc(F)cc1	-2	-9	2.2	-1.1	-7%	-0.3	6	11	0.2	-1
CCN(C(=O)COC(=O)c1ccc(Br)o1)C1CCCCC1	-5	-15	1.2	-0.1	·	0.2	·	-15	0.1	-16
CC(NC(=O)c1ccccc1[N+](=O)[O-])C1CC2CCC1C2 (stereo unspecified)	21	4	2.4	-0.2	2%	-0.2	-3	-2	-3.5	-11
COc1cc(NC(=O)Nc2cccc(Cl)c2)c(C(=O)O)cc1OC	-9	-6	6.6	7.4	?	-1.1	-3	5	4.7	-6
COc1ccc(OCC(O)Cn2c(N3CCCCC3)nc3c2c(=O)[nH]c(=O)n3C)cc1 (stereo unspecified)	-1	1	-1.8	-0.4	0%	-1.1	2	-5	0.9	38
CCCCN(C)C(=S)Nc1ccc2nc(N3CCN(CC)CC3)cc(C)c2c1	4	1	2.0	2.8	9%	0.7	1	24	2.8	2
CC1CCCN(C(c2cccs2)c2nnnn2Cc2ccccc2)C1 (stereo unspecified)	·	·	·	·	8%	0.5	0	1	-0.1	7
COc1ccc(C(=O)N/N=C/c2c[nH]c3ccccc23)cc1	7	2	0.2	7.0	0%	-0.5	-3	2	1.3	-10
CC(=O)Nc1cccc(CCc2nc3ccccc3[nH]2)c1	17	9	0.1	-3.5	·	-4.5	-2	-9	-3.3	-5
O=C(N/C(=C/c1ccccc1)C(=O)N1CCCCC1)c1ccccc1	0	-10	1.2	0.2	-1%	-0.3	0	-2	6.2	-3
COC(=O)c1ccc(-c2csc(NC(=O)C3=COCCO3)n2)cc1	-25	-32	7.5	-5.6	-3%	0.8	-7	-9	3.9	4
Cc1cccc(-n2c(SCc3cc(=O)n4c(C)cccc4n3)nc3[nH]ncc3c2=O)c1	·	·	·	·	11%	0.2	6	-2	1.0	-5
CC(=O)n1nc(-c2ccncc2)nc1SCC(=O)Nc1cccc(Cl)c1	-9	-19	0.5	-0.3	·	-0.5	-2	-5	0.2	-3

Some of these compounds in order of the Vif A3G value, largest number first:
SMILES | Ecoli rRNA inh | Ecoli rRNA inh OD600 | Ecoli rRNA inh RFP | AF4-AF9 inh | Vif A3G | RanGTP-Imp inh
CCCCC(=O)Nc1ccc2c(c1)nc1n2CCSC1 | · | · | · | · | 4% | 0.8
Cc1ccc(-c2c3c(=O)n(C)c(=O)n(C)c3cn2CCCN2CCOCC2)cc1 | · | · | · | · | 1% | 1.3
COc1ccc(OCC(O)Cn2c(N3CCCCC3)nc3c2c(=O)[nH]c(=O)n3C)cc1 (stereo unspecified) | -1 | 1 | -1.8 | -0.4 | 0% | 0.9
CCC1SC(C)C/C(=N/NC(N)=O)C1C (stereo unspecified) | 3 | 8 | -1.9 | -14 | -1% | -3.8

From PubChem BioAssay
